gsp agonist = activates gsp, the McCune-Albright syndrome mutation; gsp mutant cells, cAMP HTRF, 30 min; control for the full effect not named in the record; Potency, µM (doses to about 76.9 µM), for inactives: at the highest dose activation (cAMP increase), most hits filed as activators; 340,000 tested, 0.13% active; active = well fitted activation curve with a large enough effect; inconclusive = small, poorly fitted or top-dose-only effect, or another doubt; inactive = no such curve, though single readings can be large or run the other way; cell line not stated here;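 further: phosphodiesterase inhibitor Ro 20-1724 added with compounds to block cAMP breakdown; potency means the concentration at half of the fitted maximal effect; nearly all actives have a fitted effect of over 60% in size; about a fifth of the inactives were tested at one dose only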
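Cells in DMEM/10% FBS with G418 were pretreated with compounds in DMSO plus […] (300 uM stock) for 30 min at 37C. cAMP was measured by HTRF (cAMP-d2 plus anti-cAMP antibody-K) after 30 min at room temperature.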
TRPV1 potentiator = enhances activation of the human vanilloid receptor TRPV1; potentiation, % at 8.33 µM; 320,000 tested, 0.02% active; TRPV1-expressing cells, Fluo-8 calcium influx, capsaicin EC20 potentiation; host cell line not named in the record; control for the full effect not named in the record; AID 540277; Q8NER1; active means potentiation above 80%; inconclusive means 30% to 80%; inactive means below 30%; further: 0% is about no effect
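TRPV1-expressing cells were cultured overnight at 35.5C and loaded with Fluo-8 calcium dye for 40 to 90 min at room temperature. After a 10 s baseline, compound was added and calcium influx was read kinetically for 3 min (ex 480/em 520 nm).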
Sfp PPTase inh = blocks B. subtilis Sfp PPTase activity; Q9F4F7; Biochemical Sfp PPTase activity, qHTS; Potency, µM, inactives show max response, negative = inhibition, hits mostly inhibitors; 310,000 tested, 3.5% active; active means well fitted inhibition curve with a large enough effect; inconclusive means small, poorly fitted or top-dose-only effect, or another doubt; inactive means no such curve, though single readings can be large or run the other way;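 further: the enzyme is Sfp with the accession as filed and its product quenches rhodamine fluorescence; potency means the concentration at half of the fitted maximal effect; 0% = enzyme reaction without inhibitor and -100% = no enzyme wells; top concentration of the series not given in the record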
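After 15 min at room temperature with compound, 15 nM Sfp received 5 uM rhodamine-CoA plus 12.5 uM BHQ-2-ybbR (50 mM Hepes pH 7.6, 10 mM MgCl2). Rate came from the fluorescence difference over 30 min, ex 525/em 598 nm.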
CtBP-E1A blk = inhibitors of CtBP/E1A interaction; AlphaScreen GST-E1A/His-CtBP binding, 1536-well; stronger effect = lower value; control for the full effect not named in the record; activity change, % (test concentration not listed); 340,000 tested, 0.49% active; AID 651724; in the data active means activity change below about -65%; inconclusive means about -30% to -65%; inactive means above about -30%; further: on the % scale 0 is the no-effect control and ±100 the full control effect; compound concentration not given in the record
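Steps: dispense buffer (Tris pH 8.0, NaCl 300 mM, TCEP 1 mM, BSA, Tween 20); add 5X protein mix (GST-E1A, His-CtBP, 125 nM each); pin 23 nL compound; 2 h at 37 °C, dark; add 5X beads (50 ug/mL); 1 h; read.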
gsp antagonist = gsp mutant antagonism; AID 624288; 340,000 tested, 0.4% active; Potency, µM (doses to about 76.9 µM), without a hit: at the highest dose activity change, negative = inhibition, hits mostly inhibitors; gsp-mutant cells, cAMP HTRF, 30 min; control for the full effect not named in the record; active = falling curve of any shape with a large fitted effect; inconclusive = falling curve, mostly with a smaller effect; inactive = flat or rising curve; cell line not stated here;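 further: intracellular cAMP measured with PDE inhibitor Ro 20-1724 present during compound exposure; potency means the concentration at half of the fitted maximal effect; on the % scale 0 is the no-effect control and ±100 the full control effect; nearly all actives have a fitted effect of over 65% in size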
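HTRF cAMP read-out (cAMP-d2 plus anti-cAMP antibody-K in lysis buffer, 30 min RT). Before lysis, cells are exposed to compounds with […] for 30 min at 37C in DPBS containing Ca/Mg, BSA and Tween 20.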
Menin-MLL FL inh = menin-MLL binding inhibition, fluorescein peptide | Fluorescence polarization, fluorescein-MLL peptide displacement from menin | FP activity change, % at 61.4 µM | 290,000 tested, under 10 active; inconclusive = falling polarisation curve, or a change in total fluorescence; inactive = total fluorescence flat and polarisation flat or rising; no compound was filed as active; the % refers to the polarisation; negative = inhibition;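 further: % of control where 0% means no effect; inhibitors lower the polarisation; unlabelled MLL peptide was the positive control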
ClpP mod = qHTS Assay for Activators of ClpP | purified B. subtilis ClpP, FRET peptide cleavage, 20 min | AID 651965, 2013 | 340,000 tested, 1.9% active | ATP-dependent Clp protease proteolytic subunit (Bacillus subtilis (strain 168)), P80244 | Potency, µM (highest dose often 57.5 µM), inactives show at the highest dose activity change, negative = active; active = well fitted falling curve with a large enough effect; inconclusive = small, poorly fitted or top-dose-only effect; inactive = no such curve, though single readings can be large or run the other way; further: potency means the concentration at half of the fitted maximal effect; the source files actives as falling curves though it sought activators and does not explain the sign; nearly all actives have a fitted effect of over 65% in size; many hits overshoot -100%
Target sequence (P80244 whole entry, looked up): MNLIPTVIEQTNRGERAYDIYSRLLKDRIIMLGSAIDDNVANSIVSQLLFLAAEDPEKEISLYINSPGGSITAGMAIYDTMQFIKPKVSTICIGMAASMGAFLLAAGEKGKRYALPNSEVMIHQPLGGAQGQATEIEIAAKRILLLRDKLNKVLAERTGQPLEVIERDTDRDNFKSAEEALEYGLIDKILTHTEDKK
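Buffer: 100 mM Tris/HCl pH8, 100 mM KCl, 0.05% low protease BSA, 2.5% glycerol, 0.01% Tween-20. ClpP 10 microg/mL final; 20 min RT; delta FRET normalized to ADEP and DMSO controls.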
* = called active by the depositor; ? = inconclusive; . = no result given; [ ] = remark or other dose.

1: COC(=O)Cc1ccc(NC(=S)NCc2ccc(S(N)(=O)=O)cc2)cc1
2: Cc1ccc(CSc2nnc(SCC(=O)N/N=C/c3c(C)nn(-c4ccccc4)c3C)s2)cc1
3: CN1C(=O)c2oc3ccccc3c(=O)c2C1c1ccccn1 (stereo not given)
4: Cn1c(CNC(=O)CNC(=O)c2ccc(C(C)(C)C)cc2)cc(=O)n(C)c1=O
5: CCn1c(N2CCN(C(=S)NCC(C)C)CC2)nc2ccccc21
6: COc1ccccc1NC(=O)CCC(=O)Nc1cc(OC)c(NC(=O)c2cccs2)cc1OC
7: COc1ccc(OCC(O)CNC(=O)c2c(-c3ccccc3)noc2C)cc1 (stereo not given)
8: COC(=O)c1cn(CC(=O)Nc2ccccc2C)c2ccccc12
compound no.,1,2,3,4,5,6,7,8
gsp agonist,-17.9%,-23.6%,13.4%,28.2%,-44.2%[inhibitor],-0.3%[15.4 µM],2.6%,1.8%
TRPV1 potentiator,-2.4,-0.2,-3.4,-0.8,8.1,1.9,-1.7,11.3
Sfp PPTase inh,-23.8%,-10.4%,-23.2%,15.2%,12.5%,-9.1%,-0.1%,3.2%
CtBP-E1A blk,10.7,-23.5,-1.5,1.4,7.7,-92.8*,8.5,.
gsp antagonist,-0.5%,-14.0%,5.6%,-4.5%,-19.7%,-11.7%,-0.4%,13.6%
Menin-MLL FL inh,0.8,6.8,0.9,2.1,-0.9,-8.4,2.3,-0.1
ClpP mod,.,?,-1.5%,-0.8%,0.6%,-10.5%,2.1%,-1.6%

9: Fc1ccc(Br)cc1C1C=C(c2cccnc2)Nc2ncnn21 (stereo not given)
10: Cc1nnc(SCc2nnc(-c3ccccc3)o2)n(N)c1=O
11: CC(=O)N=c1sccn1CC(=O)c1ccc([N+](=O)[O-])cc1
12: O=C(C1=C[C@@H](c2csc3ccccc23)C[C@@H](OCc2ccc(CO)cc2)O1)N1CCN(Cc2ccccc2)CC1
13: CCOC(=O)c1c(C)n(CC(COC(C)=O)OC(C)=O)c2ccc(OC(C)=O)cc12 (stereo not given)
14: Fc1ccc(CN2CCCN(C(=S)Nc3ccc(F)cc3)CC2)cc1
15: COc1ccc(O)c(C(=O)CC(=O)c2ccncc2)c1
16: COc1ccc(C(=O)N2CCN(C(=O)CC(C)C)CC2)cc1OC
compound no.,9,10,11,12,13,14,15,16
gsp agonist,3.7%,8.3%,-14.2%,.,?,-13.4%[15.4 µM],18.3%,1.4%
TRPV1 potentiator,.,-5.5,2.4,8.9,-6.6,-14.3,.,0.4
Sfp PPTase inh,8.5%,10.6%,28.8%,0.5%,6.8%,26.7%,.,9.4%
CtBP-E1A blk,-7.4,5.3,5.6,-13.7,-1.6,2.0,-11.3,3.2
gsp antagonist,9.7%,-9.9%,5.2%,-11.5%,-1.2%,6.4%,3.9%,8.1%
Menin-MLL FL inh,-4.3,5.4,-2.9,4.0,-0.3,1.5,.,1.3
ClpP mod,-7.2%,-0.5%,0.5%,-2.6%,1.5%,.,.,-4.5%

17: Cc1cc(C)c(NC(=S)N(CCN(C)C)Cc2cccs2)c(C)c1
18: O=C(CCN1C(=O)C2CC=CCC2C1=O)Nc1nc(-c2ccc(F)c(F)c2)cs1 (stereo not given)
19: COc1ccc(-c2noc(=O)n2Cc2ccccc2F)cc1
20: COc1ccc(C(=O)NC(Cc2c[nH]c3ccccc23)C(=O)O)cc1 (stereo not given)
21: Cc1ccc(S(=O)(=O)N2CCN(C(=O)C(F)(F)F)C2c2ccc(N(C)C)cc2)cc1 (stereo not given)
22: Clc1ccc(CN2C3=NCCCN3c3ccccc32)cc1
23: Cc1cc(C)nc(S/C=C/C(=O)c2ccccc2)n1
24: O=C(COC(=O)c1ccc(O)cc1)c1ccc(S(=O)(=O)N2CCCCC2)cc1
compound no.,17,18,19,20,21,22,23,24
gsp agonist,-14.3%[15.4 µM],2.7%,-14.0%,?,21.7%[15.4 µM],-10.7%,7.2%[15.4 µM],-4.2%
TRPV1 potentiator,29.6,22.2,-1.4,0.5,6.7,-4.7,-18.9,5.0
Sfp PPTase inh,-14.9%,.,7.4%,12.0%,17.2%,6.8%,20µM*,.
CtBP-E1A blk,-11.9,-15.7,3.8,.,6.7,-0.1,-2.4,3.0
gsp antagonist,6.5%,-16.7%,-2.8%,7.3%,-26.3%,6.2%[15.4 µM],-0.1%,-13.0%
Menin-MLL FL inh,1.1,.,2.6,-3.3,.,-1.5,0.6,.
ClpP mod,.,-3.5%,-0.9%,0.3%,.,1.1%,.,-5.7%

Given as a markdown table: entries from further up.
| entry | mol | gsp agonist | TRPV1 potentiator | Sfp PPTase inh | CtBP-E1A blk | gsp antagonist | Menin-MLL FL inh | ClpP mod |
| --- | --- | --- | --- | --- | --- | --- | --- | --- |
| 8 | COC(=O)c1cn(CC(=O)Nc2ccccc2C)c2ccccc12 | 1.8% | 11.3 | 3.2% | . | 13.6% | -0.1 | -1.6% |
| 9 | Fc1ccc(Br)cc1C1C=C(c2cccnc2)Nc2ncnn21 (stereo not given) | 3.7% | . | 8.5% | -7.4 | 9.7% | -4.3 | -7.2% |
| 10 | Cc1nnc(SCc2nnc(-c3ccccc3)o2)n(N)c1=O | 8.3% | -5.5 | 10.6% | 5.3 | -9.9% | 5.4 | -0.5% |
| 11 | CC(=O)N=c1sccn1CC(=O)c1ccc([N+](=O)[O-])cc1 | -14.2% | 2.4 | 28.8% | 5.6 | 5.2% | -2.9 | 0.5% |
| 12 | O=C(C1=C[C@@H](c2csc3ccccc23)C[C@@H](OCc2ccc(CO)cc2)O1)N1CCN(Cc2ccccc2)CC1 | . | 8.9 | 0.5% | -13.7 | -11.5% | 4.0 | -2.6% |
| 13 | CCOC(=O)c1c(C)n(CC(COC(C)=O)OC(C)=O)c2ccc(OC(C)=O)cc12 (stereo not given) | ? | -6.6 | 6.8% | -1.6 | -1.2% | -0.3 | 1.5% |
| 14 | Fc1ccc(CN2CCCN(C(=S)Nc3ccc(F)cc3)CC2)cc1 | -13.4%[15.4 µM] | -14.3 | 26.7% | 2.0 | 6.4% | 1.5 | . |
| 15 | COc1ccc(O)c(C(=O)CC(=O)c2ccncc2)c1 | 18.3% | . | . | -11.3 | 3.9% | . | . |
| 16 | COc1ccc(C(=O)N2CCN(C(=O)CC(C)C)CC2)cc1OC | 1.4% | 0.4 | 9.4% | 3.2 | 8.1% | 1.3 | -4.5% |
| 17 | Cc1cc(C)c(NC(=S)N(CCN(C)C)Cc2cccs2)c(C)c1 | -14.3%[15.4 µM] | 29.6 | -14.9% | -11.9 | 6.5% | 1.1 | . |
| 18 | O=C(CCN1C(=O)C2CC=CCC2C1=O)Nc1nc(-c2ccc(F)c(F)c2)cs1 (stereo not given) | 2.7% | 22.2 | . | -15.7 | -16.7% | . | -3.5% |
| 19 | COc1ccc(-c2noc(=O)n2Cc2ccccc2F)cc1 | -14.0% | -1.4 | 7.4% | 3.8 | -2.8% | 2.6 | -0.9% |
| 20 | COc1ccc(C(=O)NC(Cc2c[nH]c3ccccc23)C(=O)O)cc1 (stereo not given) | ? | 0.5 | 12.0% | . | 7.3% | -3.3 | 0.3% |
| 21 | Cc1ccc(S(=O)(=O)N2CCN(C(=O)C(F)(F)F)C2c2ccc(N(C)C)cc2)cc1 (stereo not given) | 21.7%[15.4 µM] | 6.7 | 17.2% | 6.7 | -26.3% | . | . |

Look-ups from above.
Entry of O=C(CCN1C(=O)C2CC=CCC2C1=O)Nc1nc(-c2ccc(F)c(F)c2)cs1 (stereo not given) in gsp agonist: 2.7%
Entry of O=C(COC(=O)c1ccc(O)cc1)c1ccc(S(=O)(=O)N2CCCCC2)cc1 in ClpP mod: -5.7%

More structures follow.
25: Cc1oc2c(C)c3oc(=O)c4c(c3cc2c1C)CCCC4
26: COc1ccc(CCNC(=O)CC(Cc2ccc(C)cc2)C(=O)O)cc1OC (stereo not given)
27: COCCN1CCN(C(=O)c2cc(COc3ccc(F)cc3Cl)on2)CC1
28: Cc1cc(=O)oc2cc(OCC(=O)Nc3c(Cl)cccc3C(F)(F)F)ccc12
compound no.,25,26,27,28
gsp agonist,?,-27.0%,2.9%[15.4 µM],0.2%
TRPV1 potentiator,-1.8,0.7,-8.9,2.4
Sfp PPTase inh,14.7%,13.1%,17.5%,11.7%
CtBP-E1A blk,37.8,.,2.9,1.0
gsp antagonist,-8.7%,6.9%,2.2%,5.0%
Menin-MLL FL inh,5.6,0.2,.,.
ClpP mod,-7.5%,0.5%,-5.8%,?
